# Screens as filed in PubChem.
# Beta cell apopt = inhibitors of cytokine-induced beta cell apoptosis, primary screen, luminescence; INS-1E cytokine-induced death, ATP luminescence, 48 h; percent of positive-control rescue, neutral wells zero; protection from apoptosis, % (no concentration beside the values); 300,000 compounds, 0.8% hits; AID 435005, 2010;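 active = all replicates at 75% or more, or half of them and the mean; inconclusive = half reach 75% but not the mean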;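 note: 0% = cytokine-treated negative control wells and 100% = positive control rescue; higher means more ATP so stronger rescue from cytokine killing; wells of about 40 µL received 100 nL stock; the first replicate is given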
# T cruzi repl = inhibitors of intracellular T. cruzi growth, primary screen, luminescence, NIH3T3 host cells; 300,000 compounds, 1.4% hits; AID 1885, 2009; inhibition, % (concentration not given with the values); T. cruzi beta-gal in NIH3T3, 90 h;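 active = mean inhibition across valid replicates above about 55%, limit read from the data; inconclusive = mean below that limit but half or more replicates reach it; inactive = mean below it, under half of replicates reach it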;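 note: signal also drops with host cell toxicity which is not excluded here; 0% = plate median of DMSO wells and 100% = zero luminescence signal; higher percent means less beta-gal luminescence so fewer parasites; stock transfer was 50 nL into about 50 µL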
# FGF22 binding = binders of human FGF22 protein, primary screen, FGF22 synaptogenesis inhibitor project, biophysical, thermal shift, single point; Fibroblast growth factor 22 (Homo sapiens), Q9HCT0; recombinant FGF22 thermal shift, SYPRO orange fluorescence; percent of sucrose octasulfate shift, DMSO zero; calls only at 9.99 µM; 340,000 compounds, 1.5% hits;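 active = melting point raised past a set limit in the mean and every replicate; inconclusive = no clear call; three in four hits are not shown here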
# Target sequence (Q9HCT0 whole entry, looked up): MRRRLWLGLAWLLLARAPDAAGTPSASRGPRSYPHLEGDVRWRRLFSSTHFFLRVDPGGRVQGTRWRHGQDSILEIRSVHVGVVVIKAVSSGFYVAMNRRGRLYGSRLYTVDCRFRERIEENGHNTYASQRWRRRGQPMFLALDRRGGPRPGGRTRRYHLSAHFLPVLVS
# RanGTP-Imp inh = inhibitors of RanGTP-importin-beta interaction, primary screen, biochemical, FRET, CFP-Ran, YFP-importin-beta, homogeneous; Ran GTPase (GTP-bound) - importin-beta complex; 300,000 compounds, 1.1% hits; cell-free CFP-Ran/YFP-importin-beta FRET ratio; inhibition, % (test concentration not listed);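 active = most replicates above 15%; inconclusive = exactly half above 15%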;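 note: 0% = DMSO wells and 100% = Ran loaded with GDP instead of GTP; wells of about 40 µL received 100 nL stock; the first replicate is given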
# MLL AF4-AF9 inh = inhibitors of AF4 peptide binding to AF9, primary screen, biochemical, AlphaScreen, biotin-AF4 peptide, FLAG-AF9, single point. 350,000 compounds, 0.47% hits. inhibition, % at 10 µM. AID 651704, 2012. Protein AF-9 (Homo sapiens), P42568;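 active = every replicate reaching a set inhibition limit, whatever the replicate mean, cut at about 25% in these data; inconclusive = mean inhibition reaches that limit but some replicates miss it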;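 note: 0% = plate neutral control median and 100% = total signal loss; the record names both 10 and 1 µM as test concentration; the first replicate is given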
# Target sequence (P42568 whole entry, looked up): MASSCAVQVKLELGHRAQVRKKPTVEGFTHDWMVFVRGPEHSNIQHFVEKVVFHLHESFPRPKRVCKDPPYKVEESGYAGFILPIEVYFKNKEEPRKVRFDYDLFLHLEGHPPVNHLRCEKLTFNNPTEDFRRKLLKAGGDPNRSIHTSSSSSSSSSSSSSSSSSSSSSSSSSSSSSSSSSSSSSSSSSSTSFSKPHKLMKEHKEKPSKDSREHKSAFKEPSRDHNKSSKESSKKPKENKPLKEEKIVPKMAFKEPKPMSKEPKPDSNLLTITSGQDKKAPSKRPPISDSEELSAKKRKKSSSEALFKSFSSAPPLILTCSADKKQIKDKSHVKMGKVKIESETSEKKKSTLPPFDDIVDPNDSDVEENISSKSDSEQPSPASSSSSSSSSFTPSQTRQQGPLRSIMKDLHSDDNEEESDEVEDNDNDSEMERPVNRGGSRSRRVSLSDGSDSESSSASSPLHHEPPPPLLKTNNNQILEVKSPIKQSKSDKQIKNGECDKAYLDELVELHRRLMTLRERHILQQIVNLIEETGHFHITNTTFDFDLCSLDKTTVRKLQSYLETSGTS
# Calb FLC = C. albicans growth inhibition with fluconazole, primary screen, CaCi-2 strain, Alamar Blue fluorescence; AID 1979, 2009; C. albicans CaCi-2 (fluconazole-resistant clinical isolate) + fluconazole, 48 h; 300,000 compounds, 0.57% hits; growth inhibition, % (test concentration not listed);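 active = most replicates above 75%; inconclusive = exactly half above 75%; inactive = most below 75%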;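 note: all wells also contain fluconazole at 8 µg/ml as a sub-toxic cotreatment; 0% = median of DMSO wells and 100% = median of geldanamycin control wells; wells of about 8 µL received 7.5 nL stock; the first replicate is given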
# rRNA inh HTS = reduced GFP signal of wild-type E. coli, primary screen, bacterial rRNA inhibitor project, GFP/RFP fluorescence, OD600, single point. AID 720706, 2013. GFP signal change (wild-type ribosome), % (no concentration beside the values). 350,000 compounds, 1.6% hits. E. coli WT GFP vs humanized-ribosome RFP mutants, 24 h; active compounds read low; DMSO median 0, no signal -100;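 active = significant combined selectivity score with lowered wild-type GFP, culture density cut under 30%, mutant RFP and density less affected; inactive = any of these conditions unmet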; note: one replicate is shown; some compounds called inactive have numbers as strong as hits
# ALR inh = inhibitors of human ALR sulfhydryl oxidase, primary screen, biochemical, H2O2 detection, HRP-luminol luminescence, single point. FAD-linked sulfhydryl oxidase ALR (Homo sapiens), P55789. purified ALR, DTT oxidation. inhibition, % (no concentration beside the values). 290,000 compounds, 3.8% hits. AID 485317, 2010;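 active = mean and each replicate at 75% or more; inconclusive = only one of the two met; inactive = neither met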;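 note: stock transfer was 7.5 nL into about 7.5 µL; 0% = neutral wells and 100% = wells with inactivated enzyme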
# Target sequence (P55789 whole entry, looked up): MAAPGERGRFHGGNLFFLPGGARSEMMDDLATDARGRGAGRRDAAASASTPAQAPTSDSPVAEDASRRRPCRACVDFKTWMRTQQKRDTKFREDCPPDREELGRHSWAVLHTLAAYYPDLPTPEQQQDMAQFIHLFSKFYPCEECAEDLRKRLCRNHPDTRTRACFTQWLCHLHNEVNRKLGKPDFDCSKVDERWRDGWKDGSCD
# rRNA inh HTS OD600 = recorded beside rRNA inh HTS, whose call it bears; OD600 change, %; measured here: OD600 growth;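 optical density of the mix in the first replicate; 0 = DMSO median and -100 = no signal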
# rRNA inh HTS RFP = recorded beside rRNA inh HTS, whose call it bears; RFP signal change, %; measured here: RFP humanized mutant strains;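 first replicate; 0 = DMSO median and -100 = no signal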
# * = called active by the depositor; i = inactive; ? = inconclusive; . = no result given. A portion of the library. The share of hits here may be higher or lower than overall.
SMILES,Beta cell apopt,T cruzi repl,FGF22 binding,RanGTP-Imp inh,MLL AF4-AF9 inh,Calb FLC,rRNA inh HTS,rRNA inh HTS OD600,rRNA inh HTS RFP,ALR inh
CCOc1ccc2nc(SC3CC(=O)N(c4ccc(C)cc4)C3=O)sc2c1 (stereo not drawn),-6,2,i,6.3,-3.2,3,17,6,4.6,-17
Cc1cccc(NC(=S)N(CCCN2CCOCC2)Cc2cn(C)c3ccccc23)c1,-4,-4,.,9.3,.,-14,.,.,.,3
O=C(CCNS(=O)(=O)c1cccs1)N1CCN(c2ccc(F)cc2)CC1,6,1,i,1.3,-6.6,-4,0,0,0.2,61
CCOC(=O)CC(NC(=O)Cc1ccccc1)c1ccccc1Cl (stereo not drawn),7,2,.,-2.0,.,1,.,.,.,-1
CC(C)Cc1ccc(S(=O)(=O)Nc2cccnc2)cc1,-1,17,i,2.2,-20,1,-5,-11,-2.6,-17
O=C(O)c1cccc(CSc2nnc(-c3cccnc3)o2)c1,.,-2,.,6.3,5.3,2,-1,3,-1.8,.
COc1ccc(OCCNC(=O)C(Cc2c[nH]c3ccccc23)NC(C)=O)cc1 (stereo not drawn),-6,1,i,0.1,-0.1,0,2,0,3.0,-15
Cc1nn(-c2ccccc2)c(C)c1/C=N/NC(=O)CSc1nnc(SCc2cccc3ccccc23)s1,1,21,i,6.2,0.4,-36,.,.,.,0
O=C(Nc1cccnc1Cl)c1cccnc1Cl,-3,-7,.,1.6,.,7,.,.,.,3
CC(C)Oc1cccc(C(=O)NC(=S)NCc2cccnc2)c1,-2,-1,.,1.6,.,0,.,.,.,5
CCNC(=S)NNC(=O)Cn1nc(C)cc1C,-2,-30,i,11,2.2,-7,13,5,-5.1,37
CCCc1nnc(NC(=O)CCC(=O)N2CCC(Cc3ccccc3)CC2)s1,-2,-5,i,-2.0,-1.6,.,0,-3,1.8,0
O=C(Nc1cccnc1)c1ccc(CN2CCc3ccccc3C2)cc1,-2,13,.,-2.7,.,1,.,.,.,-21
COc1cc(C(=O)OCc2cc(=O)oc3c(C)c(C)ccc23)ccc1OC(F)F,7,-8,i,-3.9,-2.2,-5,2,14,-3.4,.
Cc1cc2cc3c(N)[nH]nc3nc2cc1C,-2,-32,.,3.4,.,?,.,.,.,-45
O=c1ccc(S(=O)(=O)N2CCCC2)c[nH]1,-3,.,i,.,-2.0,.,.,.,.,1
O=C(OCC(=O)c1ccc[nH]1)c1ccc(C(F)(F)F)cc1,-6,.,i,.,2.1,.,4,-5,-0.1,-11
Cc1nn(CC(=O)NCCN2CCCCCC2)c(=O)c2nn(-c3ccccc3)c(C)c12,-10,6,i,-0.9,10,1,8,10,1.4,-12
CC(=O)Nc1ccc(-c2cc(C(=O)O)c3ccccc3n2)cc1,-17,10,i,0.5,3.0,3,0,-4,-5.1,-3
c1ccc(-c2cc3cc4c(cc3cn2)OCO4)cc1,2,.,i,.,-5.0,.,-4,20,-8.1,-2
CCN(CC(=O)Nc1cccc(OC)c1)CC(=O)Nc1ccc(C)cc1Cl,-4,-3,i,-1.5,-1.5,0,-32,-28,-5.7,2
COCc1ccc(C(=O)NC(C)c2cnn(-c3ccccc3C)c2C)o1 (stereo not drawn),-2,-15,i,3.0,-6.5,-5,3,4,-5.1,.
COCc1cc(=O)[nH]c(/N=C(\N)Nc2ccc(C)cc2C)n1,.,-1,i,1.3,-0.3,25,-14,-35,-3.1,-5
O=C(NCCN1CCOCC1)c1sc2cc(Cl)ccc2c1Cl,.,20,i,0.6,0.5,5,-7,-11,-2.9,8
O=C1CN(S(=O)(=O)c2ccccc2)CCN1,6,.,i,.,-1.9,.,6,7,-3.3,0
Cc1ccc(NC(=O)Cc2nnc(SCC(=O)Nc3ccc(N4CCOCC4)cc3)n2C)cc1,8,-4,i,-0.7,2.2,12,5,9,0.6,.
O=C(Nc1cccc(-c2cn3cccnc3n2)c1)c1ccco1,2,68*,i,0.7,3.7,?,-11,-7,-2.1,-1
Cc1cc(C)c(C#N)c(SCc2ccccc2[N+](=O)[O-])n1,-3,-7,i,-2.5,1.9,1,.,.,.,.
CC(OC(=O)CCCSc1nc2ccccc2s1)C(=O)NC(N)=O (stereo not drawn),1,-10,i,-2.5,0.9,-3,-4,-4,1.9,.
CCN(CC)c1ccc(/C=C2\C(=O)N(c3nnc(C)c(=O)[nH]3)N=C2C)cc1,-7,3,i,1.6,-3.2,0,-5,-6,11,27
COc1ccc(N2CC(C(=O)N(C)CC(=O)Nc3ccc(Cl)c(C(F)(F)F)c3)CC2=O)c(OC)c1 (stereo not drawn),.,-18,i,3.5,-0.4,-2,-5,-6,0.2,-3
CCOc1ccc(C(=O)/C=C/Nc2ccc(S(=O)(=O)Nc3cc(C)nc(C)n3)cc2)cc1,0,9,i,-1.2,-9.6,7,-1,-2,4.1,1
COc1cc(C(=O)N/N=C/c2cn(Cc3cccc(F)c3)c3ccccc23)ccc1O,3,9,i,0.9,0.2,-34,-25,-30,-2.3,-22
CC(C)(C)C1=CC(=O)C(N2CCOCC2)=CC1=O,60,-1,i,-1.1,4.0,-2,-13,1,6.8,13
Cc1ccc(S(=O)(=O)N(C)C)cc1NC(=O)COC(=O)c1n[nH]c(=O)c2ccccc12,5,-11,.,-0.2,-2.0,-8,20,13,-1.8,-1
CCOc1cc(NC(=S)NCCCN(C)C)c(OCC)cc1NC(=O)c1cccs1,-4,10,.,0.2,.,9,.,.,.,.
c1ccc(-c2cn(-c3ccccc3)c3[n+]2CCCS3)cc1,23,27,i,0.2,-0.6,-12,15,3,-1.9,-2
Cc1ccc(N(Cc2cc(=O)[nH]c3ccccc23)C(=O)C(C)C)c(C)c1,0,6,i,0.4,-24,-1,-5,-12,0.0,0
Cn1nnnc1SC(C(=O)Nc1cccc(C(F)(F)F)c1)c1ccccc1 (stereo not drawn),-2,-9,i,-2.2,-4.1,6,-18,-30,-4.0,.
CC(C)(C)OC(=O)NCCCC[C@H](NC(=O)c1nc[nH]c1C(=O)NCc1ccc(CNC(=O)OC(C)(C)C)cc1)C(=O)OC(C)(C)C,1,21,i,-0.7,3.2,1,7,-6,-0.1,0
COc1ccc(/C=N/N2CCOCC2)cc1COc1ccc(Cl)cc1,-3,-3,.,1.6,.,8,.,.,.,-1
CC(OC(=O)CN1C(=O)NC2(CCCC2)C1=O)c1ccc(F)cc1 (stereo not drawn),-2,.,i,.,-0.2,.,.,.,.,-1
Cc1nn(-c2ccccc2)c2c1C(c1ccc(O)c(O)c1)N1C(=N2)C(Nc2ccccc2)=Nc2ccccc21 (stereo not drawn),15,51,.,-23,.,-2,.,.,.,3
Cc1nc2ccccn2c1C(=O)NNS(=O)(=O)c1ccc(Cl)cc1,0,-24,i,0.5,-3.3,1,7,10,-0.5,.
COc1ccc(S(=O)(=O)N2CCCCC2)cc1NC(=O)CSc1ncccn1,3,.,i,.,2.5,.,-14,-12,7.9,-2
COc1ccc(CNC(=O)/C=C/c2ccccc2[N+](=O)[O-])cc1,-16,17,i,-0.7,0.4,-28,6,4,6.0,-1
O=S(=O)(c1ccccc1)c1cc(O)ccc1O,-3,-11,i,-0.1,-2.4,13,3,4,4.5,98*
O=C(COC(=O)Cn1cnc2ccccc21)Nc1cccc([N+](=O)[O-])c1,2,-10,i,0.5,0.4,-8,7,11,1.0,-4
CNc1ccccc1C(=O)OCC(C)=O,-5,2,.,-0.1,.,1,.,.,.,1
O=C(CCS(=O)(=O)c1ccc(Cl)cc1)Nc1ccccc1Br,-7,-27,i,3.6,1.5,0,1,-1,-9.0,0
O=C(NCCCc1ccccc1)C1CCN(S(=O)(=O)c2ccc(F)cc2)CC1,1,5,i,2.1,1.8,10,-10,-15,2.2,-27
Cc1nc(N)nc(SCc2ccc([N+](=O)[O-])cc2)c1N,-2,1,i,2.6,3.2,-21,1,1,-1.2,37
CCC(C)C(=O)Nc1ccc(S(=O)(=O)Nc2nccs2)cc1 (stereo not drawn),1,0,i,-2.4,0.7,-1,14,14,0.4,-2
O=C(CSc1cccc[n+]1[O-])NC1CCCCC1,0,.,i,.,2.7,.,6,10,-0.6,-8
CCOC(=O)c1c(C)c(C(=O)N2CCCCCC2)c(C)n1CC,-5,-2,i,0.1,0.8,-4,-22,-19,-3.3,-17
CNc1ccn(C2CCCO2)c(=O)n1 (stereo not drawn),-4,2,i,-2.8,-1.8,17,5,6,1.7,-6
COc1ccc(/C=N/NC(=O)c2cc(-c3ccc(C)cc3C)nc3ccccc23)cc1COC(C)=O,3,12,.,0.2,.,5,.,.,.,-10
C=CCC[C@@H](Cc1ccc(F)cc1)C(=O)OCCNC(=O)[C@@H](CC=C)CC(=O)N[C@H](CO)Cc1ccccc1,-1,.,i,.,1.3,.,-9,1,0.7,-2
O=C1C2=C(c3ccccc31)[N+](=O)C1CCCCC1N2[O-] (stereo not drawn),-4,4,.,0.3,.,-7,.,.,.,7
N/C(=N\OC(=O)CCn1cccc(C(F)(F)F)c1=O)c1ccc(OC(F)(F)F)cc1,-4,-13,i,-0.7,0.3,2,12,14,1.3,3

# The listing continues.
SMILES,Beta cell apopt,T cruzi repl,FGF22 binding,RanGTP-Imp inh,MLL AF4-AF9 inh,Calb FLC,rRNA inh HTS,rRNA inh HTS OD600,rRNA inh HTS RFP,ALR inh
O=C(O)CC(SCC(=O)Nc1ccc(Br)cc1)C(=O)O (stereo not drawn),-11,-5,i,2.3,1.7,-12,11,10,1.2,-23
COc1ccc(NC(=O)Cn2nnc(C(=O)NCCc3ccc(OC)c(OC)c3)c2N)cc1,.,-7,.,6.0,.,3,.,.,.,-5
Cc1cc(/C=C2/C(=O)NN(c3ccccc3)C2=O)c(C)n1-c1ccc(O)cc1,-1,-7,i,-1.1,4.1,-7,-12,-6,17,52
O=C(CCCn1cnc([N+](=O)[O-])n1)Nc1ccc(F)c(Cl)c1,-5,60*,i,3.1,6.2,-3,6,-1,1.9,-18
Cc1cc(Cl)c(S(=O)(=O)NC(C)C)cc1OCC(N)=O,4,-10,i,0.3,-2.0,13,.,.,.,60
CC1(C)C2CCC1(C)C(OC(=O)CCn1ccnc1)C2 (stereo not drawn),3,10,.,5.0,.,-13,.,.,.,-1
CCCN(CCO)Cc1ccc(F)c(Br)c1,-6,8,.,1.8,.,-8,.,.,.,-3
